Screens (PubChem)
Vif A3G: HIV-1 Vif–A3G interaction blockers – biochemical, TR-FRET, GST-Vif 1-94, biotin-A3G peptide, dose response retest, primary screen (AID 1117319); TR-FRET GST-Vif / biotin-A3G peptide binding; higher % means a stronger effect; test concentration not given here; strong numbers were not always called active; inhibition, %, or IC50 in µM where a hit was titrated; 260,000 tested, 0.57% active;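 active = above the screen mean plus three standard deviations and confirmed in dose response; inconclusive = results disagree or hit not tested in dose response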;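 note: Vif residues 1-94 fused to GST binding biotinylated APOBEC3G peptide 110-148; 0% = full assay without inhibitor and 100% = GST in place of GST-Vif; retest series ran down from 100 µM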
Beta cell apopt: blocks beta cell apoptosis; protection from apoptosis, % (no concentration beside the values); INS-1E cytokine-induced death, ATP luminescence, 48 h; percent of positive-control rescue, neutral wells zero; 300,000 tested, 0.8% active; AID 435005;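 active = all replicates at 75% or more, or half of them and the mean; inconclusive = half reach 75% but not the mean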;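 note: 0% = cytokine-treated negative control wells and 100% = positive control rescue; higher means more ATP so stronger rescue from cytokine killing; wells of about 40 µL received 100 nL stock; the first replicate is given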
T cruzi inh: blocks replication of Trypanosoma cruzi | inhibition, % (concentration not given with the values) | 300,000 tested, 1.4% active | T. cruzi beta-gal in NIH3T3, luminescence, 90 h;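 active = mean inhibition across valid replicates above about 55%, limit read from the data; inconclusive = mean below that limit but half or more replicates reach it; inactive = mean below it, under half of replicates reach it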;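 note: signal also drops with host cell toxicity which is not excluded here; 0% = plate median of DMSO wells and 100% = zero luminescence signal; higher percent means less beta-gal luminescence so fewer parasites; stock transfer was 50 nL into about 50 µL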
Calb FLC: affects C. albicans growth with fluconazole. 300,000 tested, 0.57% active. growth inhibition, % (test concentration not listed). C. albicans CaCi-2 (fluconazole-resistant clinical isolate) + fluconazole, Alamar Blue growth, 48 h;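 active = most replicates above 75%; inconclusive = exactly half above 75%; inactive = most below 75%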;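 note: all wells also contain fluconazole at 8 µg/ml as a sub-toxic cotreatment; 0% = median of DMSO wells and 100% = median of geldanamycin control wells; wells of about 8 µL received 7.5 nL stock; the first replicate is given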
AF4-AF9 inh: MLL-AF4/AF9 protein interaction inhibition. P42568. AlphaScreen, biotin-AF4 peptide binding to FLAG-AF9. inhibition, % at 10 µM. 350,000 tested, 0.47% active. AID 651704;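 active = every replicate reaching a set inhibition limit, whatever the replicate mean, cut at about 25% in these data; inconclusive = mean inhibition reaches that limit but some replicates miss it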;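 note: 0% = plate neutral control median and 100% = total signal loss; the record names both 10 and 1 µM as test concentration; the first replicate is given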
Target sequence (P42568 whole entry, looked up): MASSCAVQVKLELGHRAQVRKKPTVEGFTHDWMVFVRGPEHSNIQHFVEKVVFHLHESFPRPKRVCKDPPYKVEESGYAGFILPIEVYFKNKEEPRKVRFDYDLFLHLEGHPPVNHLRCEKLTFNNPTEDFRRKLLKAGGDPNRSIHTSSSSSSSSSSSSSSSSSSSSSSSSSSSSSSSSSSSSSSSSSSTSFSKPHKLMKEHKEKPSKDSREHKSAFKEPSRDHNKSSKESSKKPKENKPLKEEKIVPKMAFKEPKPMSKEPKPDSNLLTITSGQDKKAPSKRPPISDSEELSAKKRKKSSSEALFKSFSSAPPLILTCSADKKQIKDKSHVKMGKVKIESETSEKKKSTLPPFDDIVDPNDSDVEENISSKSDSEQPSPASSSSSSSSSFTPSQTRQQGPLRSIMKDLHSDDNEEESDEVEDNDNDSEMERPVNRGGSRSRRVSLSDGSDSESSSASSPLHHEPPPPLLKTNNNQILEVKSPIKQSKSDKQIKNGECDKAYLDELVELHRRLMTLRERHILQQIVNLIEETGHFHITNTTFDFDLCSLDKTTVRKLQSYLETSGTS
A1 inh: inhibitors of the anti-apoptotic protein A1, read as caspase activation; MEF A1-2A-BIM cells, Caspase-Glo 3/7 luminescence, 3 h; percent of clofoctol response, vehicle zero; caspase activation, % (no concentration beside the values); 330,000 tested, 0.066% active; AID 2462;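 active = over half of replicate activation scores above 10%, or exactly half above 10 with the replicate mean above 10; inconclusive = replicate mean below 10 yet half the replicates above 10; inactive = over half of replicates below 10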;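 note: wells of about 30 µL received 50 nL stock; many hits fall short of the cut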
RanGTP-Impb inh: disruptors of Ran-importin-beta complex formation – biochemical, FRET, CFP-Ran, YFP-importin-beta, homogeneous, primary screen; cell-free CFP-Ran/YFP-importin-beta FRET ratio; inhibition, % (concentration not given with the values); 300,000 tested, 1.1% active;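 active = most replicates above 15%; inconclusive = exactly half above 15%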;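 note: 0% = DMSO wells and 100% = Ran loaded with GDP instead of GTP; wells of about 40 µL received 100 nL stock; the first replicate is given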
Ecoli rRNA inh: selective bacterial rRNA inhibition in E. coli; E. coli WT GFP vs humanized-ribosome RFP mutants, fluorescence, 24 h; stronger effect = lower value; DMSO median 0, no signal -100; AID 720706; 350,000 tested, 1.6% active; GFP signal change (wild-type ribosome), % (no concentration beside the values);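 active = significant combined selectivity score with lowered wild-type GFP, culture density cut under 30%, mutant RFP and density less affected; inactive = any of these conditions unmet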; note: one replicate is shown; some compounds called inactive have numbers as strong as hits
Ecoli rRNA inh OD600: recorded beside Ecoli rRNA inh, whose call it bears; OD600 change, %; measured here: OD600 growth;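 optical density of the mix in the first replicate; 0 = DMSO median and -100 = no signal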
Ecoli rRNA inh RFP: further read-out of Ecoli rRNA inh, marked with its call; RFP signal change, %; measured here: RFP humanized mutant strains;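 first replicate; 0 = DMSO median and -100 = no signal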
An asterisk follows results filed as active; ? = inconclusive; / = no result given.

The line under a structure holds: Vif A3G, Beta cell apopt, T cruzi inh, Calb FLC, AF4-AF9 inh, A1 inh, RanGTP-Impb inh, Ecoli rRNA inh, Ecoli rRNA inh OD600, Ecoli rRNA inh RFP
1	CC(C)CC(=O)NC(=S)NNC(=O)c1ccc([N+](=O)[O-])cc1
  /, 18, -18, 28, /, 0.9, -1.1, /, /, /
2	CSc1nnc(C)c(=O)n1COC(=O)c1ccc(S(=O)(=O)N2CCCC2)cc1
  6%, -4, -17, -14, /, -0.3, 4.5, /, /, /
3	Cc1ccc(CNC(=S)Nc2cc(C(=O)O)ccc2C)cc1
  -2%, 0, -5, 18, -17, -0.4, -1.6, 9, 12, -0.1
4	c1ccc(-c2ccc(CN3CCN(c4ncccn4)CC3)cc2)cc1
  2%, -2, -31, -4, /, -0.4, 6.5, /, /, /
5	O=C(Nc1ccc(F)cc1F)c1cc2ncc(Br)cn2n1
  -10%, /, -1, 1, /, /, -0.5, /, /, /
6	CCN(CC)CCCNC(=O)C(C)n1c2ccccc2c2nc(=O)cc(C)n21 (stereo unspecified)
  14%, -11, 10, 9, -9.9, 1.4, 0.7, 0, 0, 3.7
7	CC1=NN(C(N)=S)C(=O)C1N=Nc1ccccc1C(=O)O (stereo unspecified)
  -5%, -1, -2, -3, 2.3, 0.3, ?, -1, 7, -2.8
8	COc1ccc(-c2csc(NC3CCCCC3)n2)c(OC)c1
  -6%, 0, 8, -3, 6.1, 0.2, -1.2, -4, -5, 4.7
9	CC(C)CNC(=O)COC(=O)/C=C/c1ccco1
  14%, -2, -9, 26, /, 0.1, 2.2, /, /, /
10	CC(=O)c1ccc(N2CCN(C(=O)COc3ccccc3F)CC2)c(F)c1
  4%, -4, 4, 6, /, -0.1, -0.1, /, /, /
11	COc1ccccc1N1CCN(C(=O)C2CCN(C(=O)c3ccccc3C)CC2)CC1
  -12%, /, -5, -17, 0.8, 0.6, -3.5, 4, 7, 0.5
12	COc1cccc(-c2nnc(SC(C(=O)c3c[nH]c4ccccc34)c3ccccc3)n2C)c1 (stereo unspecified)
  21%, -2, 40, 3, -3.5, 0.6, ?, -10, -2, -2.5
13	O=C(N/N=C/c1ccc(N2CCOCC2)o1)c1cccc(C(F)(F)F)c1
  0%, -4, 4, 6, /, -0.3, -2.3, /, /, /
14	Cc1cc(C)c2nc(C(F)(F)F)nc(NCCCN3CCCC3=O)c2c1
  -7%, -4, -4, 6, /, 0.2, 6.7, /, /, /
15	CCOC(=O)NC(=O)C(/C=N/c1sccc1C(=O)OC)=C(\C)O
  3%, 4, -4, -3, -2.9, -2.6, -15, 80, 11, 18
16	CCCCn1cnc2cc(NCc3ccncc3)ccc21
  35µM*, 2, 15, -25, /, -0.3, -2.0, -1, 2, 2.3
17	CCOC(=O)C1CCN(C(=O)CN2C(=O)COc3ccc(C(C)(C)C)cc32)CC1
  /, 6, 2, -1, -7.7, -0.2, -2.1, -17, -20, 1.9
18	Cc1ccc(Nc2nc(NCc3ccco3)c3ccccc3n2)cc1
  -14%, 76*, 66*, 92*, 18, -6.1, -2.0, -4, -62, 13
19	NNC(=O)c1ccc(N2CCCCCC2)c([N+](=O)[O-])c1
  8%, -4, 6, -26, 2.3, 0.8, -2.3, -8, -2, -2.1
20	CCOc1ccc(CC(=O)N/N=C(\C)c2cccnc2)cc1OCC
  /, -4, 3, -11, 0.9, 0.1, 2.9, 1, 3, 0.1
21	COc1cc(S(=O)(=O)N2CC(=O)Nc3ccccc32)ccc1NC(C)=O
  29%, -5, -9, -2, 1.9, 0.0, -0.8, 3, 12, -3.0
22	O=C(N=C1SC2CS(=O)(=O)CC2N1c1cccc(Cl)c1Cl)C1CCCO1 (stereo unspecified)
  /, -5, -1, 1, 0.1, -0.4, 3.9, 5, 15, -1.2
23	COc1ccc(NC(=O)C2=C(C)NC(=O)NC2c2cccc(OC)c2OC)c(OC)c1 (stereo unspecified)
  -5%, 0, -5, 5, /, -0.5, 3.4, /, /, /
24	COC(=O)c1c(C)[nH]c(C(=O)OCC(=O)N2c3ccccc3NC(=O)C2(C)C)c1C
  4%, 13, -11, 19, /, 0.0, 3.7, /, /, /
25	CC(=O)c1ccc(COC(=O)c2cc3ccccc3oc2=O)cc1
  /, -2, -15, 6, -2.3, -0.7, 2.5, 17, 15, 2.2
26	CC1CCC(=O)N(CCSc2ccccc2)CC1 (stereo unspecified)
  /, 1, -2, -6, 2.3, -0.6, 1.0, 2, -9, 3.5
27	Cc1ccc(-c2nnc3sc(C4COc5ccccc5O4)nn23)cc1 (stereo unspecified)
  -4%, 1, /, /, -47, 0.1, /, -11, 6, 2.7
28	Fc1ccc2nc(Nc3nc4cc5c(cc4s3)OCCO5)sc2c1
  ?, 4, 7, -5, /, -1.0, 1.1, /, /, /
29	CN(C)S(=O)(=O)c1cccc(C(=O)Nc2cc(Cl)cc(Cl)c2)c1
  ?, 8, 12, 13, /, -0.7, 1.5, /, /, /
30	O=C1N=C(N2CCOCC2)S/C1=C\c1ccc(-c2ccccc2Cl)o1
  22%, 4, -1, 2, 0.2, 0.1, 2.1, /, /, /
31	Cc1cc(C(=O)COC(=O)c2ccc3c(c2)OCO3)c(C)n1CC1CCCO1 (stereo unspecified)
  1%, -8, 11, 0, -0.2, -6.1, 6.0, 12, 8, 4.1
32	COc1ccc(CN2CCN(C(=O)c3cc(C4CC4)nn3-c3ccccc3)CC2)cc1F
  -11%, -4, /, /, 3.6, 0.0, /, -20, -35, 3.2
33	COc1cccc(N2[C@@H](CC(C)=O)c3ccc(/C=C/C(C)=O)cc3S2(=O)=O)c1
  /, -11, -10, -2, 1.2, 0.6, -1.2, 0, 1, -3.3
34	CCCC(=O)Nc1cc(C)cn(Cc2c(F)cccc2Cl)c1=O
  -4%, 0, 11, -2, 6.7, -0.2, 4.9, -3, -3, -1.3
35	C=CCSc1n[nH]c(=O)n1-c1cccc(C(F)(F)F)c1
  -7%, -3, 6, 2, 0.2, -0.2, 0.9, -8, -4, 0.7
36	Cc1cccc(-n2nc3c(c2NC(=O)C2CC2)CS(=O)(=O)C3)c1C
  /, -20, -9, -2, 0.1, -0.4, 0.3, 3, 6, -1.2
37	O=c1oc2ccccc2c2[nH]ccc12
  /, -5, -12, 2, 0.2, -0.6, 8.0, -3, -4, -1.7
38	O=C(C1CC1)N1N=C(c2ccccc2)CC1(O)C(F)(F)F (stereo unspecified)
  /, 8, -4, -5, -0.2, -0.7, 0.0, 1, -1, -3.5
39	CCn1c(N)c(Br)c(=O)[nH]c1=O
  7%, 1, -11, 1, -2.1, 0.2, -3.2, /, /, /
40	COC(=O)c1ccc(CSc2nc(N)cc(N)n2)cc1
  -3%, -4, -20, 61, /, -1.2, 5.9, -3, -19, -0.7
41	Nc1nc(NCc2ccc(Cl)cc2)nc(NCCO)c1[N+](=O)[O-]
  28%, -2, -1, -1, /, 0.3, -3.3, -8, 7, 4.8
42	COc1ccccc1C1CC(c2cccc(NS(C)(=O)=O)c2)=NN1S(=O)(=O)c1ccccc1 (stereo unspecified)
  /, -4, -3, 7, 0.2, -0.1, 1.7, 0, -6, 0.1
43	Cc1cc(/C=C2/C(=O)N(C)C(=S)N2C)ccc1N1CCCC1
  -1%, 9, 32, -8, 2.8, -2.1, -1.9, 8, 9, 1.2
44	CN1C(=O)N(CC(=O)N2CCN(S(=O)(=O)/C=C/c3ccccc3)CC2)C(=O)C12CCCCC2
  -15%, 2, /, /, 0.9, -0.2, /, -1, -3, -0.8
45	CCS(=O)(=O)NCCCc1ccccc1
  0%, 1, -4, -6, /, -0.1, 2.8, /, /, /
46	Cc1cc(C)c(S(=O)(=O)N2CCCC(C(=O)NCCC3=CCCCC3)C2)c(C)c1 (stereo unspecified)
  9%, 2, 11, -7, 9.4, 0.0, 7.9, /, /, /
47	Cc1ccc(S(=O)(=O)Nn2c(O)c(C=C3N=c4ccccc4=N3)sc2=S)cc1
  ?, 0, -17, 4, -27, -0.8, -2.7, 10, -2, 1.2
48	COCCN(CCOC)C(=O)CN1C(=O)NC(Cc2c[nH]c3ccccc23)C1=O (stereo unspecified)
  /, 3, -1, -10, -1.2, -1.2, -4.5, 4, 16, 2.4
49	CCOC(=O)Cc1nnc(NC(=O)CSc2nncn2C)s1
  7%, -4, -9, -10, -4.9, -0.5, 6.4, 10, 4, -1.9
50	O=C(CC1C(=O)NCCN1C1CCCC1)NCc1cccc(OC(F)(F)F)c1 (stereo unspecified)
  /, -3, 1, -5, 1.6, 0.6, 0.7, 1, -11, 4.3
51	CC(=O)Nc1ccccc1OC(C)C(=O)NC(C)c1ccc(F)cc1 (stereo unspecified)
  -1%, 3, -21, 0, 1.0, 1.3, ?, -2, 8, 0.0
52	O=[N+]([O-])c1cccc(S(=O)(=O)c2cccc([N+](=O)[O-])c2)c1
  21%, 2, 4, -17, 0.7, -0.8, 1.9, 21, 23, 0.0
53	Cc1cc(NS(=O)(=O)c2ccc(NC(=O)CSc3nnc(-c4ccco4)n3Cc3ccco3)cc2)nc(C)n1
  -7%, -8, -8, -2, /, 0.3, -1.5, /, /, /

A portion of the library, so the mix of outcomes need not match the whole.
